Screens deposited in PubChem by several laboratories.
ALR H2O2 inh: human ALR oxidase inhibition via reduced H2O2; P55789; actives 3.8% (n = 290,000); inhibition, % (concentration not given with the values); purified ALR, DTT oxidation, H2O2 HRP-luminol luminescence; AID 485317;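 active means mean and each replicate at 75% or more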;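 further: stock transfer was 7.5 nL into about 7.5 µL; 0% = neutral wells and 100% = wells with inactivated enzyme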
Target sequence (P55789 whole entry, looked up): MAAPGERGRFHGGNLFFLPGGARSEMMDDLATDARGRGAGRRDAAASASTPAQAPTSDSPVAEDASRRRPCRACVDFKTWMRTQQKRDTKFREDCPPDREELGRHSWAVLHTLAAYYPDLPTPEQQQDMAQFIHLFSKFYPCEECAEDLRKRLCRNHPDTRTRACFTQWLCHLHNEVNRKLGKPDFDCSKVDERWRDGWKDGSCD
FGF22 binding: FGF22 (human) thermal shift binding. Q9HCT0. recombinant FGF22 thermal shift, SYPRO orange fluorescence; percent of sucrose octasulfate shift, DMSO zero. calls only at 9.99 µM. actives 1.5% (n = 340,000);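 active means melting point raised past a set limit in the mean and every replicate; three in four hits are not shown here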
Target sequence (Q9HCT0 whole entry, looked up): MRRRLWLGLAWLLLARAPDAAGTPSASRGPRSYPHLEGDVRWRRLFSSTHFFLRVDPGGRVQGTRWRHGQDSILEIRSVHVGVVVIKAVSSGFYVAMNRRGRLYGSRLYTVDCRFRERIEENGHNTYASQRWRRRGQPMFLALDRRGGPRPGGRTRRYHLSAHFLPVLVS
HNF4A DNA FP: change in binding of human HNF4 alpha to DNA | HNF4a-FITC DNA binding, fluorescence polarization, 1 h | activity change, % at 10 µM | actives 0.3% (n = 360,000) | AID 1224865; in the data active means activity change above about 30%, passing the limit was not always enough;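 further: controls were the assay level and a saturating level of protein; the project sought stronger binding though the title names inhibitors; some compounds called inactive have numbers as strong as hits; positive values seem to mean higher polarization but the record does not say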
Target sequence (P41235 whole entry, looked up): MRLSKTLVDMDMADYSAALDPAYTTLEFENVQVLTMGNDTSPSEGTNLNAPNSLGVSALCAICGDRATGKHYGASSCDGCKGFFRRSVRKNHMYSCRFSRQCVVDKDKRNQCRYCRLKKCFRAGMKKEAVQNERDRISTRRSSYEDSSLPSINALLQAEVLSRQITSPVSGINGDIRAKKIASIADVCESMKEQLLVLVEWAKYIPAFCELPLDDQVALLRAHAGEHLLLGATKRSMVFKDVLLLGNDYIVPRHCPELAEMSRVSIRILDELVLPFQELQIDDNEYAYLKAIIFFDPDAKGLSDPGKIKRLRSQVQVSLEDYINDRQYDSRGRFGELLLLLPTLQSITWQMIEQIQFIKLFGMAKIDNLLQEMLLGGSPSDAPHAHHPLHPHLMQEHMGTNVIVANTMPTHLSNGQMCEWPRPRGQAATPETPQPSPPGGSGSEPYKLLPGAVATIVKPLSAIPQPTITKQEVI
LANA-H2B inh: blocks KSHV LANA binding to histone H2A/H2B. Q9QR71. cell-free LANA-H2A/H2B peptide, fluorescence polarization. inhibition, % (test concentration not listed). actives 0.6% (n = 320,000). AID 2629; in the data active means inhibition mostly above about 10%, no sharp cut-off; inactive means mostly below about 6.7%;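 further: stock transfer was 7.5 nL into about 10 µL; 0% = median of vehicle wells and 100% = median of positive control wells; one replicate is shown; the record names a cut of 25% in any replicate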
UCH37 DUB inh: blocks the human deubiquitinase UCH37 | AID 588478 | inhibition, % (concentration not given with the values) | actives 0.33% (n = 330,000) | purified proteasome/UCH37, Ub-AMC cleavage fluorescence | Q9Y5K5;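 active means mean of two replicates above 20%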;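 further: 0% = compound-free wells with enzyme and 100% = wells lacking proteasome; stock transfer was 100 nL into about 20 µL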
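Material: human UCH37 enzyme supplied as purified proteasome complex. Measure: % inhibition of Ub-AMC cleavage fluorescence. Medium: pH 7.4 Tris-HCl (50 mM) with ovalbumin, ATP-MgCl2, DTT. Times: 30 min preincubation with enzyme, 25 min cleavage at room temperature. Detection: AMC fluorescence intensity at 355/460 nm.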
Ecoli growth: E. coli growth inhibition | Escherichia coli growth, OD600, 23 h; stronger effect = lower value | OD600 absorbance (concentration not given with the values) | actives 0.21% (n = 330,000) | AID 1053175;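 active means OD600 absorbance below the run mean of sample wells minus 3.6 SD, in any replicate, cut at about 0.56 in these data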;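 further: stock transfer was 300 nL into about 60 µL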
Beta2AR agonist: human beta-2 adrenergic receptor agonism by FAP; P07550; Am2.2-beta2AR cells, FAP receptor internalization, flow cytometry; reference of the scale not given here; response, % (concentration not given with the values); actives 0.43% (n = 340,000); AID 504454;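 active means response above a set limit, near 3 SD of response in nonfluorescent compounds, cut at about 42% in these data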;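 further: stock transfer was 100 nL into about 11 µL; a reference agonist was the positive control; negative values mostly stem from fluorescent compounds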
The depositor's hits bear a star; i = inactive; x = not tested or not shown; & = joins results of further samples. A portion of the library; the hit share may differ from the screen's.

SMILES | ALR H2O2 inh | FGF22 binding | HNF4A DNA FP | LANA-H2B inh | UCH37 DUB inh | Ecoli growth | Beta2AR agonist
O=C(c1cc(-c2ccc3c(c2)OCO3)on1)N1CCCCC1 | x | i | -0.8 | 0.4 | 4.9 | 0.63 | -6
COc1ccc(OC)c(CCNC(=O)CN2C(=O)COc3ccc(S(=O)(=O)N4CCOCC4)cc32)c1 | -5 | i | -1.3 | 0.5 | 1.3 | 0.7 | 10
O=S(=O)(c1cnccc1N1CCN(CCO)CC1)N1CCCCC1 | -10 | i | -0.5 | -2.4 | x | x | -4
COCCN(CCOC)S(=O)(=O)c1ccc(OC)cc1 | -8 | x | 0.1 | 4.1 | -1.4 | 0.71 | 0
COc1ccc(C(=O)N/C(=C\c2ccccc2)C(=O)Nc2ccc(C(=O)NCC(=O)O)cc2)cc1 | 1 | i | 3.0 | 1.1 | 6.2 | 0.62 | 2
CC(=O)n1cc(/C=N/NC(=O)c2ccccc2Cl)c2ccccc21 | -1 | x | -1.1 | -2.2 | x | x | 2
CCC1=NN(C(=O)Cc2ccc(OC)cc2)C(O)(C(F)(F)F)C1 (centres undefined) | -2 | i | -0.9 | 4.4 | 4.4 | 0.67 | 1
O=C(NCc1cccnc1)c1cccc(F)c1 | -4 | x | -2.8 | -1.8 | -2.0 | 0.74 | -1
COc1cc(CNc2ccc3c(c2)CCC3)cc(OC)c1O | 99* | x | 5.0 | -0.4 | 0.0 | 0.73 | 14
Cc1cc(C)nc(/N=C2/NC(=O)CS2)n1 | -5 | i | -3.4 | -3.8 | 3.1 | 0.72 | -3
Cn1c2ccccc2c2cnn(CC(=O)O)c(=O)c21 | -27 | x | 0.0 | 0.8 | -1.1 | 0.73 | 10
COc1ccccc1C(CC(=O)Nc1nccs1)c1ccco1 (centres undefined) | -5 | x | -1.5 | -1.3 | 0.2 | 0.66 | 0
COc1ccc(/C=N/OCC(=O)Nc2cc(C)on2)cc1OC | -8 | i | -1.2 | 9.9 | x | x | 4
CCCCc1oc2c(c(=O)c1C)C(=O)CC(c1ccccc1)C2 (centres undefined) | -5 | x | 0.2 | -0.2 | 1.9 | 0.64 | -8
CCCn1ncc(CN2CCC(C(=O)Nc3cccc(-c4cccc(F)c4)c3)CC2)c1C | -1 | i | 0.7 | -2.2 | 4.1 | 0.69 | 5
COc1ccc(N2C(=O)CC(N3CCC(C(N)=O)CC3)C2=O)cc1 (centres undefined) | -7 | x | -2.8 | -3.2 | 0.0 | 0.65 | 3
CCCCc1cc(=O)oc2c(CN3CCCC3)c(O)ccc12 | 25 | x | 0.9 | -7.2 | i | 0.73 | -5
Cc1ccc(NC(=O)COC(=O)CC2CCCC2)cc1F | -7 | i | -1.8 | -4.0 | 5.5 | 0.65 | -6
COc1ccc(/C=N/NC(=O)c2nc(-c3ccccc3)n(-c3ccccc3)n2)c(O)c1 | 0 | x | -6.8 | -11 | x | x | 12
COc1ccc(N(C(=O)c2snc(C(N)=O)c2N)C(C(=O)NCc2ccccc2)c2ccc(O)cc2)cc1 (centres undefined) | x | i | -1.3 | x | -18 | 0.66 | -2
Brc1cc2c(cc1C1OCCCO1)OCO2 | x | i | 0.8 | x | 0.2 | 0.71 | 1
O=C(CN1C(=O)NC2(CCCC2)C1=O)OCc1c(F)cccc1Cl | -15 | i | 1.5 | 5.5 | 1.9 | 0.64 | -11
COc1ccc(/C=N\NS(=O)(=O)c2ccc(Cl)cc2)cc1COc1ccccc1[N+](=O)[O-] | 1 | x | -1.5 | -4.6 | x | x | 4
COc1ccc(C2=NN(C(=O)CSc3nnc(-c4ccccc4F)o3)C(c3ccco3)C2)cc1 (centres undefined) | 0 | x | -2.2 | -3.8 | 5.7 | 0.75 | 0
CNC(=O)Nc1cccc(C(F)(F)F)c1 | -16 | x | 7.5 | 2.7 | 2.1 | 0.7 | -8
CC(C)CN(C(=O)COC(=O)c1cccc2ccccc12)c1c(N)n(Cc2ccccc2)c(=O)[nH]c1=O | -8 | i | 4.2 | 1.1 | -0.5 | 0.68 | 9
CN1CCc2c(c3ccccc3n2Cc2ccccc2)C1 | -15 | i | 1.2&1.8 | -1.1 | 2.7 | 0.71 | 8&0
COc1cccc(-c2nn(-c3ccc(C)cc3)cc2C(=O)N2CCc3cc(OC)c(OC)cc3C2)c1 | 2 | i | -0.7 | -1.4 | 0.1 | 0.7 | 17
O=C(CCCOc1ccccc1)Nc1cccc(C(=O)O)c1 | 6 | x | -0.1 | 3.8 | 1.0 | 0.72 | 4
C=CCn1cnc2c(c1=O)c1nc3ccccc3nc1n2-c1ccc(C)cc1 | -5 | x | x | -10 | 4.4 | 0.73 | x
CN1C(=O)C(O)(CC(=O)/C=C/c2ccco2)c2ccccc21 (centres undefined) | 3 | i | -1.1 | 6.0 | 4.6 | 0.71 | 6
CC1=NN(C(=O)COc2ccccc2C)C(O)(c2ccc(Cl)cc2)C1 (centres undefined) | 18 | i | -0.8 | 0.1 | 3.1 | 0.71 | -8
O=c1cc(C2CCCCC2)[nH]c(=O)[nH]1 | x | i | 7.1 | x | x | x | -8
CCOc1c(Br)cc(C2NS(=O)(=O)N=C3CCCCCN32)cc1OC (centres undefined) | -4 | x | -1.1 | 0.0 | 4.2 | 0.72 | -2
COc1cccc(NC(=S)N2CCC(Cc3ccccc3)CC2)c1 | -9 | i | 3.4 | -0.9 | 4.9 | 0.7 | 1
CC(=O)c1c(C)oc2ccc(N(C(=O)C3CCCCC3)S(=O)(=O)c3cc([N+](=O)[O-])ccc3C)cc12 | x | x | 0.0 | x | 1.0 | 0.67 | 1
CC(=O)Nc1ccc(NC(=S)NC(=O)/C=C/c2ccco2)cc1 | 0 | i | 5.4 | 1.4 | 6.8 | 0.68 | 7
COc1ccc(CCNC(=O)C(=O)NCC2CCCN2S(=O)(=O)c2ccc(OC)cc2)cc1 (centres undefined) | -1 | i | 1.1 | 3.4 | -0.3 | 0.64 | 12
Cc1cc(NC(=O)CSc2nc3cc(Cl)ccc3c(=O)n2Cc2ccco2)no1 | x | i | -1.0 | 0.9 | -4.8 | 0.69 | 2
O=C(CSc1nc2ccccc2[nH]1)c1c[nH]c2ccccc12 | x | i | -0.4 | 2.5 | 0.9 | 0.69 | -10
Nc1c(N(CCO)C(=O)C2CCCCC2)c(=O)[nH]c(=O)n1Cc1ccccc1 | -2 | i | -11 | -3.9 | -21 | 0.72 | -1
O=C(NCc1ccc2c(c1)OCO2)Nc1ccc(Cl)cc1 | -9 | i | 4.5 | -2.4 | 0.5 | 0.67 | -13
COC(=O)c1sccc1NC(=O)Cc1ccc(OC)c(OC)c1 | -9 | x | -1.8 | 0.6 | -0.6 | 0.69 | -2
CCn1cc(NC(=O)Nc2ccc(OC)c(OC)c2)c(C(N)=O)n1 | -3 | x | -3.2 | -6.0 | 2.0 | 0.68 | -2
Cc1cccc(N(C(=O)CCC(=O)Nc2cc(C)on2)C(C(=O)NC2CCCC2)c2ccccc2)c1 (centres undefined) | x | i | 1.2 | -4.8 | 3.7 | 0.66 | -1
CCOc1ccc(NC(=O)Cc2ccc(S(=O)(=O)N3CCOCC3)s2)cc1OCC | -15 | i | -0.4 | -0.2 | -0.4 | 0.75 | 10
Cc1nn(CC(=O)NCc2ccccn2)c(C)c1[N+](=O)[O-] | -2 | i | -0.8 | -8.3 | 1.4 | 0.69 | -6
CC(=O)C1=C(O)C(=O)N(c2cccc(C(=O)O)c2)C1c1ccc(F)cc1 (centres undefined) | -1 | i | -0.6 | -11 | -1.4 | 0.69 | 2
O=C1NCCN(C(=O)CCc2nnc(-c3ccsc3)o2)C1c1ccc(F)cc1 (centres undefined) | -7 | i | -7.1 | 4.4 | -1.9 | 0.66 | 14
Cc1c(C(=O)OCC(=O)N(C)Cc2ccc(Cl)cc2)oc2ccccc12 | x | i | -4.2 | 1.6 | 5.1 | 0.67 | -8
Cc1cc(C)n(CCCNC(=O)c2cc(COc3ccc(C)c(C)c3)on2)n1 | 1 | i | 0.9 | 3.9 | 1.4 | 0.71 | -5
CC(C)N1CCN(Cc2ccc(C#CC(C)(C)O)cc2)CC1CCO (centres undefined) | -13 | i | -1.0 | -8.9 | -0.2 | 0.7 | 2
COC(=O)c1c(NC(=O)CC2SC(N)=NC2=O)sc2c1CCC(C(C)(C)C)C2 (centres undefined) | -20 | x | 0.8 | -1.1 | 0.4 | 0.71 | 3
CC(C)C(=O)NNC(=O)c1csc(-c2cccs2)n1 | 1 | i | -7.5 | 4.9 | 4.9 | 0.68 | 3
Cc1cc(Cn2ccnc2)c(C)c([N+](=O)[O-])c1Cn1ccnc1 | -53 | i | 1.9 | 2.7 | 2.4 | 0.66 | 4
CCCN(CCC)CCCNC(=S)Nc1ccc2nc(N3CCCC3)cc(C)c2c1 | 66 | i | 2.8 | 1.4 | -35 | 0.68 | 23
CC(c1ccccc1)N1C(=O)OC(C)(C)C1(C)O (centres undefined) | x | i | 0.8 | x | x | x | -10
Cc1ccnc(N2C(=O)c3ccc([N+](=O)[O-])cc3C2=O)c1 | x | i | -2.5 | -0.6 | x | x | 1
O=C(Cn1cnc2c(nnn2Cc2ccccc2F)c1=O)N1CCN(c2ccccc2)CC1 | 8 | i | -0.8 | -2.6 | 1.2 | 0.69 | 2
O=C(c1ccc(F)cc1)N1CCC(C(=O)N2CCN(S(=O)(=O)c3ccccc3Br)CC2)CC1 | 0 | i | -0.4 | 2.4 | 1.4 | 0.63 | 1

Full records from above:
Results for `Cc1cc(C)n(CCCNC(=O)c2cc(COc3ccc(C)c(C)c3)on2)n1` → ALR H2O2 inh: 1; FGF22 binding: i; HNF4A DNA FP: 0.9; LANA-H2B inh: 3.9; UCH37 DUB inh: 1.4; Ecoli growth: 0.71; Beta2AR agonist: -5
Results for `CCCN(CCC)CCCNC(=S)Nc1ccc2nc(N3CCCC3)cc(C)c2c1` → ALR H2O2 inh: 66; FGF22 binding: i; HNF4A DNA FP: 2.8; LANA-H2B inh: 1.4; UCH37 DUB inh: -35; Ecoli growth: 0.68; Beta2AR agonist: 23
Results for `O=C(c1ccc(F)cc1)N1CCC(C(=O)N2CCN(S(=O)(=O)c3ccccc3Br)CC2)CC1` → ALR H2O2 inh: 0; FGF22 binding: i; HNF4A DNA FP: -0.4; LANA-H2B inh: 2.4; UCH37 DUB inh: 1.4; Ecoli growth: 0.63; Beta2AR agonist: 1

Continuation:
SMILES | ALR H2O2 inh | FGF22 binding | HNF4A DNA FP | LANA-H2B inh | UCH37 DUB inh | Ecoli growth | Beta2AR agonist
Cc1noc(C)c1S(=O)(=O)Nc1ccc(C(=O)NCCc2ccccc2)cc1 | -1 | x | -1.8 | 5.2 | 4.2 | 0.73 | 16
O=C(CN1C(=O)NC2(CCCC2)C1=O)NCCc1ccc(F)cc1 | -3 | i | 5.1 | -1.5 | 0.7 | 0.65 | -14
Cc1cc(-c2nnc(SCC(=O)Nc3ccc(F)cc3)n2N)n[nH]1 | -1 | i | 2.5 | 4.4 | 5.2 | 0.66 | 4
COc1cc2c(C)nc3onc(-c4ccccc4)c3c2cc1OC | -28 | x | 5.9 | 0.1 | -25 | 0.76 | 16
Cc1cccc(S(=O)(=O)NNC(=O)Cc2cccn2C)c1 | 31 | i | -4.5 | -3.7 | -1.5 | 0.63 | -2
O=C(CCCN1C(=O)/C(=C/c2ccccc2)SC1=S)Nc1ccccc1O | 2 | i | 0.1 | -0.3 | 2.8 | 0.72 | 0
NC(=O)CC(NC(=O)Cc1ccc(Br)cc1)c1ccc(N2CCC(N3CCCC3)CC2)c([N+](=O)[O-])c1 (centres undefined) | -2 | i | 1.4 | 4.8 | 0.0 | 0.69 | -8
Cc1cc2cc3c(cc2nc1SCC(=O)Nc1nc(C)c(C)s1)OCO3 | 97* | x | -1.2 | 1.7 | 1.0 | 0.7 | 2
COC(=O)c1ccccc1S(=O)(=O)N1CCC(C(=O)OC(C)C(=O)Nc2ccc(NC(C)=O)cc2)CC1 (centres undefined) | -1 | i | 0.6 | -3.0 | 2.6 | 0.69 | 7
